# Sfp PPTase inh = qHTS Assay for Inhibitors of Bacillus subtilis Sfp phosphopantetheinyl transferase (PPTase); Biochemical Sfp PPTase activity, qHTS; 3.5% of 310,000 active; 4'-phosphopantetheinyl transferase ffp (Bacillus subtilis), Q9F4F7; Potency, µM, for the others: max response, negative = inhibition, actives largely listed as inhibitors; active = well fitted inhibition curve with a large enough effect; inconclusive = small, poorly fitted or top-dose-only effect, or another doubt; inactive = no such curve, though single readings can be large or run the other way;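 also: the enzyme is Sfp with the accession as filed and its product quenches rhodamine fluorescence; potency is read from the fitted curve at half-maximal effect; 0% = enzyme reaction without inhibitor and -100% = no enzyme wells; top concentration of the series not given in the record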
#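 Sfp 15 nM + cpd, 15 min RT; start w/ rhodamine-CoA 5 uM, BHQ-2-YbbR 12.5 uM (final); 50 mM Hepes pH 7.6, 10 mM MgCl2, 0.01% NP-40, 0.01% BSA; read 525/598 nm at 0 and 30 min.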
# Menin-MLL FL inh = qHTS Assay for Inhibitors Targeting the Menin-MLL Interaction in MLL Related Leukemias: Competition With Fluorescein Labeled MLL-derived Peptide | Fluorescence polarization, fluorescein-MLL peptide displacement from menin | FP activity change, % at 61.4 µM | 290,000 tested, under 10 active | AID 1766, 2009; inconclusive = falling polarisation curve, or a change in total fluorescence; inactive = total fluorescence flat and polarisation flat or rising; no compound was filed as active; the % refers to the polarisation; negative = inhibition;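 also: % of control where 0% means no effect; inhibitors lower the polarisation; unlabelled MLL peptide was the positive control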
# D2 agonist = Beta-Arrestin HTS for Positive Allosteric Modulators of the Human D2 Dopamine Receptor: Agonists. D(2) dopamine receptor (Homo sapiens), P14416. DiscoveRx PathHunter D2 beta-arrestin, luminescence, 90 min; 100% = 57 uM dopamine signal. activation, % (concentration not given with the values). 0.084% of 360,000 active. AID 624465, 2012; in the data active = activation above about 40%; inconclusive = about 15% to 40%; inactive = below about 15%; also: compound concentration not given in the record; the text of the record calls up to 30% inactive
# Target sequence (P14416 whole entry, looked up): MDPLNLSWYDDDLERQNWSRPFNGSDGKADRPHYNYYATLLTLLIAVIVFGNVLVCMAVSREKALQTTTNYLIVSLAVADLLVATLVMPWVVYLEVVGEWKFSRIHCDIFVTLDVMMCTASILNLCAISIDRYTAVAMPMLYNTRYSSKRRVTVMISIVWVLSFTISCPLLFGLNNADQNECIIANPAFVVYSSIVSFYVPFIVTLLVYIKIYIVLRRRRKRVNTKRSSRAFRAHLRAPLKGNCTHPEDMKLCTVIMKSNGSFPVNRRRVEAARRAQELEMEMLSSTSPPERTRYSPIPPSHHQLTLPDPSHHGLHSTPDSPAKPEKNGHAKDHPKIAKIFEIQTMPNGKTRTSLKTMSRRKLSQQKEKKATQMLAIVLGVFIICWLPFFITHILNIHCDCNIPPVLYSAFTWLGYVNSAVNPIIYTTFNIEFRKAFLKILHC
#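 Agonist mode: compounds alone added to overnight-plated D2 PathHunter cells for 90 min at 37 C, with 57 uM final dopamine (EC100) defining full response. Beta-arrestin recruitment detected by chemiluminescent reagent, read after 1 h at ambient temperature.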
# gsp antag = qHTS for Antagonists of gsp, the Etiologic Mutation Responsible for Fibrous Dysplasia/McCune-Albright Syndrome: qHTS; Potency, µM (top dose mostly 76.9 µM), inactives show at the top dose activity change, negative = inhibition, most hits filed as inhibitors; 0.4% of 340,000 active; gsp-mutant cells, cAMP HTRF, 30 min; control for the full effect not named in the record; active = falling curve of any shape with a large fitted effect; inconclusive = falling curve, mostly with a smaller effect; inactive = flat or rising curve; cell line not stated here;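 also: intracellular cAMP measured with PDE inhibitor Ro 20-1724 present during compound exposure; potency is read from the fitted curve at half-maximal effect; % is scaled to controls: 0 for no effect and ±100 for the full control effect; nearly all actives have a fitted effect of over 65% in size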
#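 G418-selected cells were plated in DMEM/10% FBS for 16-24 h at 37C, then treated with compounds plus the PDE inhibitor […] (300 uM solution added) for 30 min at 37C. Intracellular cAMP was measured by HTRF after 30 min lysis at room temperature.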
# ClpP mod = qHTS Assay for Activators of ClpP. purified B. subtilis ClpP, FRET peptide cleavage, 20 min. Potency, µM (top dose mostly 57.5 µM), without a hit: top-dose activity change, negative = active. 1.9% of 340,000 active; active = well fitted falling curve with a large enough effect; inconclusive = small, poorly fitted or top-dose-only effect; inactive = no such curve, though single readings can be large or run the other way; also: potency is read from the fitted curve at half-maximal effect; the source files actives as falling curves though it sought activators and does not explain the sign; nearly all actives have a fitted effect of over 65% in size; many hits overshoot -100%
# Target sequence (P80244 whole entry, looked up): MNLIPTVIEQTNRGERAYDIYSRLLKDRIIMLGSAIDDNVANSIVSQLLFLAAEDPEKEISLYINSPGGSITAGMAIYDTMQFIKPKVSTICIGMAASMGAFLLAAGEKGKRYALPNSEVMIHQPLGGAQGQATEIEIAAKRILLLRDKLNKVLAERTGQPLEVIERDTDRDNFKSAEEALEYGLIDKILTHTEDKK
#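 ClpP 10 microg/mL final, pH 8 Tris/KCl buffer with BSA, glycerol, Tween-20; compound pinned in; FRET-FV substrate; RT 20 min; Ex320/Em430; ΔFRET vs ADEP 5.8 microM, DMSO, no enzyme.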
# gsp agonist = qHTS for Agonist of gsp, the Etiologic Mutation Responsible for Fibrous Dysplasia/McCune-Albright Syndrome: qHTS. gsp mutant cells, cAMP HTRF, 30 min; control for the full effect not named in the record. Potency, µM (series often up to 76.9 µM), for the others: at the highest dose activation (cAMP increase), actives largely listed as activators. 0.13% of 340,000 active. AID 624287, 2012; active = well fitted activation curve with a large enough effect; inconclusive = small, poorly fitted or top-dose-only effect, or another doubt; inactive = no such curve, though single readings can be large or run the other way; cell line not stated here;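 also: phosphodiesterase inhibitor Ro 20-1724 added with compounds to block cAMP breakdown; potency is read from the fitted curve at half-maximal effect; nearly all actives have a fitted effect of over 60% in size; about a fifth of the inactives were tested at one dose only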
#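 Cells stably selected in G418 were plated at 2000/well, grown 16-24 hr, then given compounds in DMSO with the PDE inhibitor […] (300 uM solution added) for 30 min at 37C; cAMP was read by HTRF.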
# PINK1 modulator = A Quantitative High throughput Screen to Identify Chemical Modulators of PINK1 Expression; PINK1 immunofluorescence, high-content cytometry, 24 h; Potency, µM (highest dose often 76.6 µM), for inactives: top-dose activation (PINK1 increase), actives largely listed as activators; 0.2% of 410,000 active; AID 624263, 2012; active = well fitted activation curve with a large enough effect; inconclusive = small, poorly fitted or top-dose-only effect; inactive = flat fitted curve, though single readings scatter; cell line not stated here;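 also: potency is read from the fitted curve at half-maximal effect; % of control where 0% means no effect; nearly all actives have a fitted effect of over 65% in size; a mitochondrial uncoupler was the plate control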
#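 Compound titrations (5 concentrations, 24 h) on a stable cell line; DMSO and CCCP controls. Endpoint: fixed-cell PINK1 immunofluorescence with mitochondrial, cell and nuclear markers, scanned by microplate cytometer.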
# * marks the source's active call; other numbers are inactive results; ? = inconclusive; . = not tested or not shown; & = joins results of further samples; [ ] = remark or other dose.
SMILES,Sfp PPTase inh,Menin-MLL FL inh,D2 agonist,gsp antag,ClpP mod,gsp agonist,PINK1 modulator
Cc1ccc(S(=O)(=O)Cc2ccc(C(=O)N3CCN(c4ccccn4)CC3)o2)cc1,0%,-0.7,4.1,3%,-8.2%,-57%[inhibitor],5.0%
COc1ccc(NC(=O)C2(C)CCCN2C(=O)C(C)C)cc1OC (stereo unspecified),.,.,-3.9,.,-1.9%,.,1.2%
Cc1ccc(S(=O)(=O)Nc2cc(C(=O)O)ccc2N2CCCCC2)cc1,-7%,-1.6,9.7,-7%,-1.7%,?,5.7%[38.3 µM]
NCCc1nnc(SCC(N)=O)o1,0%,1.0,0.6,9%,-0.9%,-38%[inhibitor],1.3%
Cc1c(C(C)C)c(=O)n(-c2ccc(S(=O)(=O)NCc3ccccc3)cc2)n1C,-7%,-0.3,-1.1,-19%,.,7%[15.4 µM],-1.3%
Cc1cccc(OCc2nnc(SCC(=O)N3c4ccccc4Sc4ccc(Cl)cc43)o2)c1,8%,3.3,-0.4,4%,0.2%,16%,0.6%
CCn1c(SCC(=O)N/N=C/c2cc(OC)c(OC)c(OC)c2)nc2ccccc21,10%,-1.1,2.8,7%,-3.2%,-34%,-1.8%
O=C(NNS(=O)(=O)c1ccc(F)cc1)c1ccccc1F,10%,0.1,-3.5,5%,2.0%,-31%[inhibitor],0.1%
CCc1ccccc1NC(=O)CNC(=O)c1cccc(S(=O)(=O)N2CCN(Cc3ccccc3)CC2)c1,.,.,-1.6,-25%,-1.1%,-32%[inhibitor],-1.1%
CC1Cc2ccccc2N1C(=O)c1ccc2snnc2c1 (stereo unspecified),2%,-0.4,-3.2,-7%,0.3%,1%,.
Cc1ccc(OCCn2c(C3CC(=O)N(Cc4ccccc4)C3)nc3ccccc32)cc1 (stereo unspecified),7%,6.1,-0.6,4%,-2.5%,-102%[inhibitor],23%
O=C(CSc1nc2c(oc3ccccc32)c(=O)n1CC1CCCO1)NCc1ccccc1 (stereo unspecified),.,.,-0.7,-13%,-0.8%,-44%[inhibitor],14%
Cc1onc(-c2c(F)cccc2Cl)c1C(=O)c1ccccc1O,18%,0.8,-0.8,?,.,-4%[15.4 µM],2.7%
Cc1cccc(C(C)C)c1NC(=O)CSc1nncn1C,2%,4.0,-1.0,-8%,1.0%,-17%,3.3%[38.3 µM]
CC(NS(=O)(=O)c1ccc2ccccc2c1)c1ccccn1 (stereo unspecified),.,.,-3.8,5%,-9.1%,-49%,-1.4%
COc1ccc([N+](=O)[O-])cc1NC(=O)COC(=O)c1ccccn1,-29%,-1.0,-4.6,7%,-0.3%,-2%[15.4 µM],0.8%
CCOc1cc(NC(=O)c2ccco2)c(OCC)cc1NC(=O)CCc1ccccc1OC,-30%,0.5,-3.3,-16%[15.4 µM],-0.1%,13%,16%
CCc1cccc(CC)c1-n1c(SCc2cc(=O)n3ccsc3n2)nnc1-c1cccnc1,13%,5.2,-0.2,8%,-2.2%,-60%[inhibitor],2.9%[38.3 µM]
CCOC(=O)CSc1ncnc2c1cnn2-c1ccccc1,5%,2.5,-0.7,-28%,-4.1%,-13%,2.6%[38.3 µM]
CCN(C[C@H]1N[C@@](CC)(C(=O)OC)[C@H]2C(=O)N(Cc3ccccc3)C(=O)[C@@H]12)C(=O)Nc1ccc(OC)cc1,.,.,-4.1,6%,1.0%,.,-0.2%
CC1CCCC(C)N1C(=O)Cn1c(SCC(=O)Nc2ccc3c(c2)OCO3)nc2ccccc21 (stereo unspecified),1%,6.1,2.2,-8%,-0.1%,-2%,4.3%[38.3 µM]
O=C(NCC1CCCO1)c1ccc2c(=O)n(CC3CCCO3)c(SCC(=O)N3CCCC3)nc2c1 (stereo unspecified),-14%,-5.5,-1.4,-18%,.,3%[15.4 µM],0.4%
Nc1nc(N)c2c(n1)CN(Cc1ccc(Cl)cc1)C2,.,.,-3.5,.,4.4%,?,-0.7%
C=CCC[C@H](Cc1ccc(F)cc1)C(=O)OC[C@H](Cc1c[nH]c2ccccc12)NC(=O)[C@@H](CC=C)CC(=O)NCCO,.,.,2.9,-8%,-0.9%,-7%,21%
CCOC(=O)N1CCN(C(=O)CN(C2CCCCC2)S(=O)(=O)c2ccc(Cl)cc2)CC1,-4%,2.6,-2.4,-9%,1.7%,-21%,2.7%[38.3 µM]
# (listing goes on)
SMILES,Sfp PPTase inh,Menin-MLL FL inh,D2 agonist,gsp antag,ClpP mod,gsp agonist,PINK1 modulator
O=C(c1ccc2c(c1)OCO2)N(CC1CCCO1)C1(C(=O)NC2CCCCC2)CCCCC1 (stereo unspecified),16%,-0.1,-1.7,2%,-1.8%,-19%,0.3%
C=CCn1c(-c2ccncc2)n[nH]c1=S,-23%,-3.0,10.0,-4%,.,-42%[inhibitor],-0.4%
CCN(CC(=O)Nc1ccccc1OC)C(=O)CSCC(=O)Nc1cccc(C)c1,.,.,-1.6,4%,.,-9%[15.4 µM],1.8%
CCOc1ccc(C(=O)Nc2cccc(-c3cc4ccccc4oc3=O)c2)cc1[N+](=O)[O-],14%,0.8,-1.9,-3%,-8.2%,13%,3.3%
O=C(CN1CCOCC1)NCCNC(=O)CN1CCOCC1,16%,-1.9,-3.5,7%,0.4%,-21%,-0.9%
CN(C)C(=O)N1CCN(C(=O)N(C)C)CC1,11%,3.6,-3.1,11%,0.9%,-5%,1.1%
COc1cc(OC)cc(C(=O)Nc2ccc3nc4n(c(=O)c3c2)CCCC4)c1,16%,12,0.0,-4%,3.9%,-2%,4.7%
O=[N+]([O-])c1ccccc1OCCNCc1ccccc1,-20%,2.0,1.5,5%,-0.4%,-5%,-0.1%
CCc1nn(C)c(N)c1C,-6%,0.8,-3.7,-3%,0.3%,?,1.8%
COC(=O)C1=C(C)NC(C)=C(C(=O)OC)C1c1cc2ccc(C)cc2[nH]c1=O,?,0.4,-2.8,11%,-23%,-45%[inhibitor],8.3%
CCOC(=O)c1ccc(NC(=O)CSc2nnc(C)n2-c2ccccc2)cc1,-13%,0.9,-1.3,-9%,1.0%,-23%,-1.6%
Nc1nnn(CC(=O)N/N=C/c2ccco2)n1,13%,1.0,-0.7,3%,-0.2%,-1%,-0.5%
O=C1CCN(C(=O)Nc2ccccc2)N1,-11%,-1.7,-1.7,8%,-0.6%,5%,4.0%[38.3 µM]
Cc1ccc(-n2ncc3c2CCCC3NC(=O)CCN2CCCC2=O)cc1C (stereo unspecified),2%,.,4.6,0%,2.0%,17%,0.2%
Cc1cc(-c2ccccc2)nc(Nc2nc3c(C)cccc3c(=O)[nH]2)n1,.,.,-4.1,-11%,-0.9%,-38%[inhibitor],10%
COc1ccc(NC(=O)NCCN2CCN(c3cc(OC)ccc3OC)CC2)cc1,15%,-1.6,-2.9,2%,-6.0%,-19%,13%
NC(=O)CC(NC(=O)c1ccc(Br)cc1)c1ccc(N2CCN(c3ccccn3)CC2)c([N+](=O)[O-])c1 (stereo unspecified),-12%,0.5,-1.4,-8%,2.1%,.,4.7%
CCn1cc(CN2CCC(n3nccc3NC(=O)C3CCCC3)CC2)cn1,11%,.,1.3,9%,-0.3%,-13%,-1.0%
CC1Cc2cc(/C=C3/SC(=S)N(C)C3=O)ccc2O1 (stereo unspecified),12%,6.0,-0.4,5%,.,-5%,11%
Cc1noc(/C=C/N(C)C)c1S(=O)(=O)N1CCCC(C(=O)NCc2ccco2)C1 (stereo unspecified),5%,?,-5.6,-1%,-0.7%,-29%,3.3%
S=c1[nH]nc(-c2ccccc2Cl)n1CC1CCCO1 (stereo unspecified),?,-3.1,-1.8,11%,-0.9%,18%,-0.8%
CCOc1ccc(NC(=O)CCN2CCN(c3ccccc3)CC2)cc1,11%,1.0,?,0%,0.1%,14%,-1.1%
COc1ccc(-c2nc(N)nc(C)c2-c2ccc(Cl)cc2)c(O)c1,-10%,-7.1,3.2,-26%,-1.5%,-1%,-1.0%
N#Cc1cc(-c2ccccc2)oc1/N=C/c1ccccc1O,-7%,4.7,-2.3,3%,-11%,11%,-0.6%
O=C(Cn1ncc(Cl)c(Cl)c1=O)NC(=O)NC1CCCCC1,.,.,-4.3,-12%,-2.4%,0%,-4.7%
# (listing goes on)
SMILES,Sfp PPTase inh,Menin-MLL FL inh,D2 agonist,gsp antag,ClpP mod,gsp agonist,PINK1 modulator
Cc1nnc(N2CCCC(C(=O)Nc3cc(F)ccc3F)C2)c2nn(-c3ccccc3)c(C)c12 (stereo unspecified),1%,.,8.7,?,-25%&-7.2%,-22%,-1.5%&1.3%
CN(C(=O)COC(=O)c1cccnc1Cl)C1CCCCC1,.,.,-2.0,13%,0.0%,2%[15.4 µM],-0.8%
Cc1ccc(CNC(=O)c2cccc3c2C(=O)c2ccc(N4CCC(C)CC4)cc2S3(=O)=O)cc1,.,.,0.9,-13%,1.6%,-2%,8.5%
COc1ccc(-c2[nH]ncc2-c2csc(C)n2)c(O)c1,19%,1.0,1.5,28%,-0.6%,-2%,-0.5%
O=C(CNCC1CCCO1)N1CCN(S(=O)(=O)c2ccc3ccccc3c2)CC1 (stereo unspecified),-11%,-1.7,-0.9,6%,-0.1%,-9%,0.3%
CN(C)/C=C(\C#N)S(=O)(=O)c1ccccc1,27%,-0.6,-5.0,7%,-1.4%,-71%[inhibitor],1.1%
CCOc1ccc(C(=O)N[C@H](C(=O)Nc2cccc(S(=O)(=O)N3CCOCC3)c2)C(C)C)cc1,.,.,-5.2,12%,1.8%,3%,3.9%
c1ccc(CC2CCN(c3nc4ccccc4n4cnnc34)CC2)cc1,-24%,0.8,-0.1,-20%,?,-15%,?
O=C1CC[C@@H](C(=O)N2CSC[C@@H]2C(=O)Nc2ccc(C(F)(F)F)cc2)N1,.,.,0.0,.,-4.2%,-72%[inhibitor],1.5%
